NPYLR7 ag: activates Aedes aegypti NPYLR7 receptor; HEK293T NPYLR7/Galpha15, GCaMP6s calcium fluorescence; activation, % at 10 µM; hit rate 0.15% among 270,000; in the data active = activation above about 40%;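 note: 0% = vehicle and 100% = reference agonist at the receptor; some compounds past the cut are filed as inactive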
NPYLR7 ag max-min: also measured in NPYLR7 ag; calls as there; activation, %; measured here: Max-Min RFU normalised activation; some inactives read as strong as hits;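 span of the calcium signal over five minutes; 0% = vehicle and 100% = native peptide agonist; compound fluorescence can raise it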
The depositor's hits bear a star. Only part of the results is shown; count on the stated rates, not on these rows.

Preview (12 entries):
structure | NPYLR7 ag | NPYLR7 ag max-min
O=S(=O)(Cc1ccccc1)NCCNc1ccc(Nc2ccccn2)nn1 | 13.3 | 5.8
COCc1cc(N2CCN(c3ccccc3Cl)CC2)nc(SCc2ccc(C(=O)NCC3CCCO3)cc2)n1 (stereo not drawn) | 1.7 | 13.2
COc1ccccc1-c1cc(C(=O)NCC(C)C)nc2c(-c3ccccc3)c(C)nn12 | 18.4 | 11.8
O=C(NCCN1C(=O)SC(=Cc2ccc(Cl)cc2Cl)C1=O)c1ccco1 | -16.7 | -15.2
Cc1nc(Cn2cnc(-c3ccccc3)n2)oc1C | -2.7 | -4.5
COc1ccc(C(=O)N(Cc2cc(NC(=O)CC(C)C)ccc2N(C)C)CC2CCCO2)cc1 (stereo not drawn) | 6.5 | 13.1
Cc1nc(NC(=O)CC2(CC(=O)Nc3n[nH]c(C)n3)CCCC2)n[nH]1 | -7.0 | -14.8
COC(=O)Oc1sc2nc3ccccc3nc2c1N | -2.4 | -5.7
Cc1ccc(C)c(C2=NN(C(=O)CN3CCCC3)C(c3ccc(Cl)cc3)C2)c1 (stereo not drawn) | 1.9 | 3.9
O=C(COc1ccc(F)cc1)N1CCc2c(nc(-c3cccnc3)[nH]c2=O)C1 | 7.8 | 3.3
CCOc1ccc(-c2cnc(-c3cc(CC)no3)[nH]2)cc1 | -1.2 | -7.5
CC(OC1CCCC1)C(=O)Nc1ccc(CC(N)=O)cc1 (stereo not drawn) | 10.0 | 8.8

The whole of this part (from the top)
structure | NPYLR7 ag | NPYLR7 ag max-min
O=S(=O)(Cc1ccccc1)NCCNc1ccc(Nc2ccccn2)nn1 | 13.3 | 5.8
COCc1cc(N2CCN(c3ccccc3Cl)CC2)nc(SCc2ccc(C(=O)NCC3CCCO3)cc2)n1 (stereo not drawn) | 1.7 | 13.2
COc1ccccc1-c1cc(C(=O)NCC(C)C)nc2c(-c3ccccc3)c(C)nn12 | 18.4 | 11.8
O=C(NCCN1C(=O)SC(=Cc2ccc(Cl)cc2Cl)C1=O)c1ccco1 | -16.7 | -15.2
Cc1nc(Cn2cnc(-c3ccccc3)n2)oc1C | -2.7 | -4.5
COc1ccc(C(=O)N(Cc2cc(NC(=O)CC(C)C)ccc2N(C)C)CC2CCCO2)cc1 (stereo not drawn) | 6.5 | 13.1
Cc1nc(NC(=O)CC2(CC(=O)Nc3n[nH]c(C)n3)CCCC2)n[nH]1 | -7.0 | -14.8
COC(=O)Oc1sc2nc3ccccc3nc2c1N | -2.4 | -5.7
Cc1ccc(C)c(C2=NN(C(=O)CN3CCCC3)C(c3ccc(Cl)cc3)C2)c1 (stereo not drawn) | 1.9 | 3.9
O=C(COc1ccc(F)cc1)N1CCc2c(nc(-c3cccnc3)[nH]c2=O)C1 | 7.8 | 3.3

Carrying on.
structure | NPYLR7 ag | NPYLR7 ag max-min
CCOc1ccc(-c2cnc(-c3cc(CC)no3)[nH]2)cc1 | -1.2 | -7.5
CC(OC1CCCC1)C(=O)Nc1ccc(CC(N)=O)cc1 (stereo not drawn) | 10.0 | 8.8
COc1ccc(C(=O)NCc2ccc3c(c2)cc(C)n3C)c(OC)c1 | 10.3 | 4.6
CCCn1c(C2CC(=O)N(c3ccc(F)cc3)C2)nc2ccccc21 (stereo not drawn) | -2.0 | 22.2
O=C(O)c1cc(-c2ccc(F)cc2)c[nH]1 | -5.1 | 1.5
CC(C)C(=O)Nc1sc2c(c1-c1nc3ccccc3s1)CCN(C)C2 | 48.9* | 42.5*
COc1cccc(C=Nn2c(C)nc3ccccc3c2=O)c1O | -5.0 | 6.4
COC(=O)C1=C(C)NC(C)=C(C(=O)OC)C1C(=O)OCC(N)=O | 1.6 | 1.4
Cc1nnc(CNC(=O)c2ccc(NC(=O)C3CCC3)cc2)o1 | 1.5 | 3.2
CC(C)(C)NS(=O)(=O)c1ccc2nc(NC(=O)C3CCCO3)sc2c1 (stereo not drawn) | 10.7 | 14.0

Going on with the list:
structure | NPYLR7 ag | NPYLR7 ag max-min
COc1ncccc1CNC(=O)NC(C)c1ccc2c(c1)OCO2 (stereo not drawn) | 3.7 | 3.4
CN(C/C=C/c1ccco1)Cc1cc(-c2cccnc2)no1 | 11.7 | 9.6
COc1ccc2nc(CNC(=O)C3COc4ccccc4O3)[nH]c2c1 (stereo not drawn) | -0.3 | -7.2
COc1ccc(C)c2sc(N(CCCN3CCOCC3)C(=O)C3COc4ccccc4O3)nc12 (stereo not drawn) | -0.6 | -6.9
COC(=O)C(C)N(CC(=O)NCC1(c2ccccc2)CC1)C1CC1 (stereo not drawn) | 5.6 | 3.8
CC(C)=CCN1CCN(Cc2cnc(-c3ccccc3C)nc2)CC1CCO (stereo not drawn) | 15.7 | 3.0
CN1C[C@@H](NS(=O)(=O)c2ccc(C#N)cc2)C[C@H]1c1nc(-c2ccncc2)no1 | -2.6 | -10.4
N#CC(=Cc1ccc(OC(F)F)cc1)C(=O)O | 0.1 | -3.1
CCc1cc(N2CCN(c3ccccc3F)CC2)nc(SCc2cccc(C(=O)N3CCCC3)c2)n1 | 10.7 | -0.7
CCCCCCNC(=O)c1c(C)nsc1NC(=O)OC | -5.4 | -2.6

Exported with each value named: 2 of the compounds above.
N#CC(=Cc1ccc(OC(F)F)cc1)C(=O)O
  NPYLR7 ag: 0.1	NPYLR7 ag max-min: -3.1
COc1ncccc1CNC(=O)NC(C)c1ccc2c(c1)OCO2 (stereo not drawn)
  NPYLR7 ag: 3.7	NPYLR7 ag max-min: 3.4

(list continues)
structure | NPYLR7 ag | NPYLR7 ag max-min
CSCCCNC(=O)c1c(C)noc1-c1cccnc1 | 4.3 | 2.4
COc1ccc(OC)c(C(=O)CSc2nnc(-c3ccco3)n2-c2cccc(Cl)c2)c1 | 1.9 | 9.5
CCCCc1n[nH]c(=O)n1-c1cccc(C)c1 | -0.4 | -2.1
COc1cccc(S(=O)(=O)Cc2cc(C)nc3ccccc23)c1 | 14.8 | 8.5
COc1cccc(OCC2CCCN(C(=O)c3cc(C)[nH]n3)C2)c1 (stereo not drawn) | -7.1 | -9.7
Cc1nn(C)cc1CN(C)C(=O)c1ccc(-c2ccccc2)cc1 | 0.8 | 1.1
COc1ccc(-n2c(SCc3cccc(Cl)c3)nnc2-c2ccccc2C)cc1 | 5.9 | 5.9
COc1ccc(S(=O)(=O)NCC2CCN(CC(F)(F)F)C2)c(C)c1 (stereo not drawn) | 7.0 | 3.0
CCOC(F)(C(F)(F)F)C(F)(F)OC(F)(CC(F)(F)F)C1=NCCN1 (stereo not drawn) | -2.1 | -4.8
COc1ccc(CCN(C)S(=O)(=O)c2ccc(OC)c(N3CCN(S(=O)(=O)c4ccc(Cl)cc4)CC3)c2)cc1OC | 19.6 | 11.0

Additional results follow:
structure | NPYLR7 ag | NPYLR7 ag max-min
Cc1cc(C)nc(-n2nc(C)cc2NC(=O)C(C)C)n1 | 1.7 | -0.3
CCCCc1ccc(S(=O)(=O)NC(=O)C2(C)CCN2C(=O)c2ccco2)cc1 (stereo not drawn) | 5.4 | 5.0
CC(C)C(=O)Nc1cccnc1-c1ccc(-c2ccn[nH]2)cc1 | 5.7 | 4.2
CCNC(=S)NS(=O)(=O)c1cccs1 | 4.5 | 1.7
O=C(Nc1cccc2c1CCC2)c1ccc(CN2CCOCC2CO)cc1 (stereo not drawn) | -2.7 | -3.8
O=C(CC1CCS(=O)(=O)C1)NCc1cnn2ccccc12 (stereo not drawn) | -4.4 | -10.0
Cc1[nH]c2ccc(CNC(=O)CCN(C)C3CCS(=O)(=O)C3)cc2c1C (stereo not drawn) | 4.0 | 2.5
Cc1ccc(-c2csc3nc(CN(Cc4ccccc4)CC(O)COCC(C)C)[nH]c(=O)c23)cc1C (stereo not drawn) | -7.5 | -3.6
Cc1nc(NCCNC(=O)Nc2ccc(F)c(Cl)c2)cc(N2CCCC2)n1 | 0.8 | -0.8
COc1cccc(-n2cc(CNCc3nc(-c4ccco4)no3)cn2)c1 | -1.7 | -1.8

Next results
structure | NPYLR7 ag | NPYLR7 ag max-min
CC(NC(=O)NCCn1ccnc1)c1nc(-c2ccccc2)cs1 (stereo not drawn) | -1.3 | -2.1
COCCNC1=CC(=O)CC(C)(C)C1 | -3.1 | -3.2
CCC(O)CN(Cc1ccc2c(c1)OCO2)Cc1cccc(OC)c1OC (stereo not drawn) | 5.3 | 11.1
Cc1ccc(C(=O)CSc2ncnc3c2oc2ccccc23)cc1 | -6.5 | -7.1
CC(C)c1cc(C(=O)NCc2noc(-c3cccs3)n2)n(C)n1 | 5.2 | -2.9
COCC(=O)Nc1cc(C(=O)NC2Cc3ccccc3C2)cc2ncn(CCc3ccccc3)c12 | 0.5 | -1.7
O=C(CSc1ccc(-c2ccccc2)nn1)N1CCCCCC1 | 3.0 | 1.4
O=C(N[C@@H]1C[C@H]2CC[C@@H]1C2)C1CCCCC1C(=O)N1CCc2c([nH]c3ccccc23)C1 (stereo partly drawn) | -7.0 | -13.5
N/C(=N/OCC(=O)N1CCOCC1)c1nonc1N | -4.4 | -7.2
COc1cc2ccccc2cc1C(=O)Nc1cccc(-c2nc3ccccc3o2)c1 | 7.2 | -4.1

Next results
structure | NPYLR7 ag | NPYLR7 ag max-min
O=C(CSc1nc(=O)n(CCO)c2c1CCCC2)Nc1cccc([N+](=O)[O-])c1 | -4.2 | -11.2
CCNC(=O)C1(C)CCCN1C(=O)c1ccccc1Oc1ccccc1 (stereo not drawn) | 1.3 | 0.4
CCC(=O)NS(=O)(=O)c1ccc(-c2c(-c3ccccc3)noc2C)cc1 | -1.9 | -8.1
COc1cccc(OC)c1C(=O)N1CCN(C(C(=O)NCCN2CCCCC2)C2CCCC2)CC1 (stereo not drawn) | -7.6 | -0.6
CCOC(=O)C1CCCN(Cc2nc(-c3cccs3)no2)C1 (stereo not drawn) | 3.7 | 3.2
COc1ccc(C(=O)N(Cc2ccccc2)C2CCC(NC(=O)C3CCN(C(=O)/C=C/c4ccccc4)CC3)CC2)cc1 (stereo not drawn) | 16.5 | 30.0
CC1(C)CNC(=O)CN(C(=O)c2ccc(Cl)cc2)C1 | 15.3 | 25.8
CCN(Cc1ccccc1OC)CC1CCCN(CCc2cccc(OC)c2)C1 (stereo not drawn) | 5.0 | 1.7
CCOc1ccc(Nc2nc(N)c([N+](=O)[O-])c(NCCO)n2)cc1 | -0.4 | -2.2
CCC(O)CN(Cc1c(C)nn(-c2ccccc2)c1Oc1ccc(OC)cc1)CC1CC1 (stereo not drawn) | 6.4 | 6.0

Carrying on:
structure | NPYLR7 ag | NPYLR7 ag max-min
COc1ccc(-c2cc(C(=O)N3CCN(C(C)=O)CC3)n(-c3ccc(Cl)cc3)n2)c(OC)c1 | 2.6 | 19.6
O=C(NCc1noc(-c2ccsc2)n1)C1CCCN1Cc1ccccc1 (stereo not drawn) | 14.6 | 10.5
Nc1cccc(-n2ccnc2-c2ccccn2)n1 | 20.1 | 10.4
CC(=O)Oc1c(-c2ccc(NC(=O)CC(C)(C)C)cc2)c(-c2ccccc2F)nn1-c1ccc(F)cc1 | -0.2 | 0.1
CC(=O)c1ccc(NC(=O)CSc2nc(=O)n(N3CCN(C)CC3)c3c2CCC3)cc1 | -5.1 | -10.0
Clc1cccc(-c2nc(N3CCC(Cc4ccccc4)CC3)c3ccccc3n2)c1Cl | -1.2 | 3.4
Cc1cccc(Cn2cccc(C(=O)O)c2=O)c1 | 3.0 | 0.7
COc1cc(-c2nc3sc4c(c3c(=O)[nH]2)CCC4)ccc1OCc1ccccc1 | -0.2 | 3.6
Nc1nc(SCC(=O)Nc2cccc(C(F)(F)F)c2)[nH]c(=O)c1NC(=O)c1ccc(F)cc1 | -6.8 | -11.8
O=C(Nc1ccc(-c2nc3ccccc3[nH]2)cc1)C1CCCN(Cc2nccs2)C1 (stereo not drawn) | 18.6 | 10.8

Next results.
structure | NPYLR7 ag | NPYLR7 ag max-min
COc1ccc(C(=O)CCC(=O)N2CCN3CCNC(=O)C3C2)cc1 (stereo not drawn) | 6.2 | 5.5
C=C[C@]1(C)Cc2occ(C)c2C[C@H]1C(=C)C(=O)O | -0.4 | -0.6
COc1ccc(NC(=O)NCCS(=O)(=O)c2c(C)n(C)c3ccccc23)cc1 | -0.6 | 10.3
O=C(CN1CCOc2ccccc2C1)N[C@@H]1c2ccccc2C[C@@H]1O | -4.3 | -8.4
Cc1ccc(Cc2nc(CSc3ccc(F)cc3F)cs2)cc1 | 2.7 | -0.5
COc1ccc2cc(C3CN(C(=O)CN4CCCC4=O)CCO3)ccc2c1 (stereo not drawn) | -0.1 | -1.3
CC(C1=CCCN(CCn2cccc2)C1)N(C)C(=O)c1ccco1 (stereo not drawn) | 1.4 | -5.4
Cc1cnc(C(=O)NC2CC(C)(C)Cc3c2cnn3-c2cccc(F)c2)cn1 (stereo not drawn) | -10.6 | -11.0
COc1ccc(-c2nnc(NC(=O)C3CCCN3)s2)cc1 (stereo not drawn) | -6.0 | -18.8
CCn1nnc2c(N3CCC(O)CC3)ncnc21 | 12.7 | 7.4

Additional results follow:
structure | NPYLR7 ag | NPYLR7 ag max-min
Cc1cnc(NC(=O)CCCNS(=O)(=O)c2ccc(C)c(C)c2)s1 | 3.3 | 1.9
CCCCn1c(=O)c2c(nc3n2CCCN3c2cccc(Cl)c2)n(C)c1=O | -2.5 | -1.7
Cc1ccc2nc(NC(=O)CSc3nc(=O)n(CCCN(C)C)c4c3CCC4)sc2c1 | 2.6 | 2.8
O=c1oc2ccc(Br)cc2cc1-c1csc(Nc2cccc(C(F)(F)F)c2)n1 | -10.2 | -15.1
CCCC(NC(=O)Cc1ccccc1)C(=O)Nc1ncccc1Br (stereo not drawn) | 4.4 | -0.8
CCOc1ccccc1-n1c(=O)[nH]c2c(C(N)=O)nc(-c3ccncc3)nc21 | 11.5 | 2.9
CCc1cnc(C)nc1N[C@@H](C)c1cccc(OC)c1 | -0.5 | -1.0
CN(C)C(=O)c1ccc(NC(=O)Cn2cnc3cc(Cl)ccc3c2=O)cc1 | 3.7 | 1.8
OCCCc1nc2ccccc2n1CCCOc1ccccc1 | 0.9 | 7.0
COC(=O)c1cc2n(n1)CCCN(C(=O)C/C=C/c1ccccc1)C2 | 11.9 | -0.1
CCCCN(Cc1cccn1Cc1cccc(C(F)(F)F)c1)C(=O)CN(CC)C(=O)c1ccc(Cl)cc1Cl | -6.5 | -9.5
C1=CCC(c2cn(Cc3ccccc3-n3cccn3)nn2)CC1 (stereo not drawn) | 9.8 | 6.1
